From PubChem
Arbovirus anti: antivirals against arbovirus infection, primary screen, cell-based, full library, 10K replicate subset; AID 1251, 2008; arbovirus infection cell-based antiviral screen; inhibition, % at 10 µM; 200,000 tested, 0.37% active;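 active = inhibition from about 30%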;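 note: bluetongue infection of BSR cells; cell survival read as ATP light after 72 h; 0% = infected wells without compound and 100% = uninfected wells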
RecA intein inh: Mtb RecA intein splicing inhibitors, primary screen, biochemical, fluorescence, HTS; cell-free RecA intein splicing; inhibition, %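 (about 9 µM by stock and volumes)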; 290,000 tested, 0.75% active; in the data active = inhibition above about 30%; inconclusive = no clear call, values can overlap the other calls;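 note: 0% = vehicle wells and 100% = reference inhibitor control wells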
Target sequence (P9WHJ3 whole entry, looked up): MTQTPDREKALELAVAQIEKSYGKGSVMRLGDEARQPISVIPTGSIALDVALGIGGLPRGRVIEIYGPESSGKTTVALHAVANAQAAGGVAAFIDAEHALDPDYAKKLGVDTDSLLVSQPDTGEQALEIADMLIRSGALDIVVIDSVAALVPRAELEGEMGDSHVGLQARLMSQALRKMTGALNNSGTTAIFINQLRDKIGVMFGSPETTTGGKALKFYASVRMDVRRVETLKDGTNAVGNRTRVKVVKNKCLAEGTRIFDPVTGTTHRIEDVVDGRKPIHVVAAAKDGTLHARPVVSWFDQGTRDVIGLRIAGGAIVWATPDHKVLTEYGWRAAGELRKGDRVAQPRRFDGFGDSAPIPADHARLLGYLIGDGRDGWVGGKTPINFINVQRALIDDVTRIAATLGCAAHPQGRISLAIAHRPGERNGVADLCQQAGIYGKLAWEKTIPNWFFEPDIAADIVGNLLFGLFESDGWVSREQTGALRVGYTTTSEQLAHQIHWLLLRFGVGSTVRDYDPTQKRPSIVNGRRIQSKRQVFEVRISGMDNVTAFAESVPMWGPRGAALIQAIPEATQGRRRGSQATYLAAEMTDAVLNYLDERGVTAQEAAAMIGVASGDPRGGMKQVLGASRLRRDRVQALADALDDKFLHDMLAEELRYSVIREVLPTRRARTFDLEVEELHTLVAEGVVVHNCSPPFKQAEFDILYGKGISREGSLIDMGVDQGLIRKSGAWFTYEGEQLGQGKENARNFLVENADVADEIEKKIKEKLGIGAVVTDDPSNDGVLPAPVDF
Mtb bLac sens: beta-lactam sensitization of Mtb H37Rv, H37Rv; inhibition, % at 25 µM; AID 434955, 2010; 330,000 tested, 0.27% active; M. tuberculosis H37Rv growth with meropenem, percent inhibition; hits of this screen are not shown here;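 active = about 74% or more and at least 40 points above the plate without the antibiotic, then above 30% in a dose series; inconclusive = first-round hits that could not be retested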;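 note: growth measured after seven days incubation then overnight dye step; 0% = bacteria only wells and 100% = bacteria with antibiotic; twin plates without the antibiotic show which effects depend on it; some results filed as inactive read as strong as hits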
YopH inh: YopH tyrosine phosphatase inhibitors, primary screen, biochemical, fluorescence Ex485/Em525; inhibition, %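 (about 10 µM by stock and volumes)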; 140,000 tested, 0.16% active; AID 898, 2007;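 active = inhibition of 50% or more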;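 note: controls were vehicle for no effect and minimum signal wells for full effect; inactives centre near -20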
Mtb H37Rv: M. tuberculosis H37Rv growth inhibitors, H37Rv strain (AID 1626); M. tuberculosis H37Rv growth inhibition; higher % means a stronger effect; one-dose inhibition, % at 10 µM; IC50 in µM for titrated hits; 220,000 tested, 0.95% active;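 active = confirmed in a dose series; inconclusive = inhibition above 80% but not taken into the dose series; inactive = below 80% or under 30% at every dose of the series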;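 note: bacteria incubated seven days before Alamar blue readout; 0% = bacteria only wells and 100% = bacteria with antibiotic wells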
Arbovirus anti repeat: further read-out of Arbovirus anti, marked with its call; inhibition, %; measured here: 10K subset replicate screen; many hits read low in the repeat;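 first of two repeat runs on a subset; 0% = infected and 100% = uninfected wells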
Numbers without * were called inactive; ? = inconclusive; . = no result given; & = joins results of further samples.

SMILES | Arbovirus anti | RecA intein inh | Mtb bLac sens | YopH inh | Mtb H37Rv | others
CCN(C(=O)COC(=O)c1nc2nc(C)cc(C)n2n1)C1CCS(=O)(=O)C1 (stereo not drawn) | . | -3.1 | -8 | . | .
CCc1ccc2[nH]c(=O)c(Cc3ccccc3)c(O)c2c1 | . | -1.3 | -1 | . | .
Cc1nn(C(C)C)c(C)c1CN1CCCC(C(=O)c2cccc(OC(C)C)c2)C1 (stereo not drawn) | -6 | -1.1 | -4 | . | -1%
COc1ccc(CNC(=O)Cc2c[nH]c3ccccc23)cc1OC | . | -2.4 | 4 | . | .
CCOC(=O)c1sc(NC(=O)CSc2n[nH]c(CC(C)C)n2)nc1C | 14 | -1.6 | . | -23 | 2%
CCN(C(=O)CSc1nnc(CNc2cccc(OC)c2)n1C1CCCCC1)C1CCS(=O)(=O)C1 (stereo not drawn) | . | 1.0 | 4 | . | .
COCc1cc(CN2CCCC(CNC(=O)c3ccc(F)cc3)C2)ccc1OC (stereo not drawn) | 4 | . | 5 | . | 2%
CCN(CC)S(=O)(=O)c1cccc(-c2nnc(SCC(=O)N3CCC(C(=O)O)CC3)n2N)c1 | 8 | -2.2 | -2 | . | 2%
COc1ccc(C2Nc3ccccc3C(=O)N2NS(=O)(=O)c2ccccc2)cc1OC (stereo not drawn) | -3 | -1.6 | 1 | . | 6%
COc1ccc(C(=O)N2CCCC(Nc3ccc(C)c(C)c3)C2)cc1F (stereo not drawn) | . | 2.5 | ? | . | .
Cc1ccc(S(=O)(=O)CC(C)(O)CS(=O)(=O)c2ccc(C)cc2)cc1 | . | . | -2 | . | -12%
O=C(Cn1c2c(c(-c3ccccc3)cc1=O)CCCC2)N1CCCCCC1 | -25 | 13 | 5 | -13 | 2% | Arbovirus anti repeat=-19
COc1ccc(OC)c(CCNC(=O)CCc2cn(C)c3ccccc23)c1 | . | 1.4 | 3 | . | .
CN(C)CCOC(=O)C12CC3CC(C1)CC(C(=O)OCCN(C)C)(C3)C2 | . | 1.0 | -3 | . | -5%
COCCNC(=O)CCn1nc(-c2ccc(C)cc2)ccc1=O | . | 3.6 | -3 | . | .
COc1ccc(C(C(=O)NC(C)(C)C)N(C(=O)CCC(=O)Nc2cc(C)on2)c2ccc(C)c(C)c2)cc1 (stereo not drawn) | . | -0.5 | 12 | . | .
Cn1cccc1/C=C1/C(=O)NC(=O)N(Cc2ccc(F)cc2)C1=O | . | -0.2 | . | . | -3%
O=C1[C@H]2[C@@H](c3ccc(F)cc3)N3C(=O)N(c4cccc(Cl)c4)C(=O)[C@@]3(Cc3ccccc3)[C@H]2C(=O)N1C1CCCCC1 | . | -1.5 | -14 | . | .
COc1ccccc1C1NC(=O)c2ccccc2O1 (stereo not drawn) | . | -5.5 | 1 | . | .
CCN(CC)CCn1c2c(c(SCC(=O)Nc3cccc4ccccc34)nc1=O)CCC2 | . | -0.3 | -14 | . | .
O=C(Nc1ccc(O)cc1C(=O)O)c1cccc(Br)c1 | 3 | -1.3 | -2 | -50 | 0%
Clc1ccc(C2=Nn3c(nnc3-c3n[nH]c4c3CCC4)SC2)cc1 | -10 | 0.3 | 98 | -41 | 65%
CC(=O)c1cccc(NC(=O)CSc2nnc(C(C)N(C)C)n2-c2ccc(F)cc2)c1 (stereo not drawn) | . | 1.6 | 10 | . | .
OC(CC#CCN1CCCC1)(c1ccccc1)c1ccccc1 | . | -0.1 | -13 | . | .
COCCn1c(SCC(=O)N2CCCC2)nnc1-c1ccoc1C | 14 | 0.0 | -3 | -16 | -5%
SMILES | Arbovirus anti | RecA intein inh | Mtb bLac sens | YopH inh | Mtb H37Rv | others
CNC(=O)CC1C(=O)N(c2ccc(OC)cc2)C(=S)N1NC(=O)c1cccc(F)c1 (stereo not drawn) | . | 9.0 | -2 | . | -1%
Cc1ccc(-n2nc(C)c3c(C)cc(=O)[nH]c32)cc1 | 5 | 0.9 | -4 | -3 | 7%
Cc1ccc(N2C(=O)C(CN(C)C)C2c2ccccc2)cc1 (stereo not drawn) | 1 | 2.3 | -8 | -19 | -4%
CS(=O)(=O)N(CC(=O)N1CCc2ccccc2C1)Cc1ccc(F)cc1 | . | 1.2 | 0 | . | .
COc1ccc(S(=O)(=O)N2CCCC2CNC(=O)C(=O)NCc2ccccc2Cl)cc1 (stereo not drawn) | . | -0.2 | 1 | . | .
CC(=O)N1c2ccc(S(=O)(=O)N3CCCCC3)cc2CC1C(=O)NCc1ccc(N(C)C)cc1 (stereo not drawn) | . | -0.5 | -8 | . | .
CCOC(=O)c1c(C)n(OC)c2ccc3c(no[n+]3[O-])c12 | -4 | 0.6 | -7 | -23 | -3%
COC(=O)N/N=C/c1c(C)c(C(=O)c2ccc(F)cc2)n2ccccc12 | -10 | -17 | 12 | -37 | 4%
C#CCOCCOCCOCCNc1nc(N2CCOCC2)nc(N2CCN(C(=O)[C@H](CCCCN)n3cc([C@@H](N)C(C)CC)nn3)CC2)n1 (stereo partly drawn) | 3 | 1.2 | -2 | . | -10%
O=C1NC(=S)N/C1=C/c1cccnc1 | . | 0.0 | -9 | . | -2%
CCCCN1/C(=C/c2cccc[n+]2C)Sc2cc(NC(C)=O)ccc21 | . | -0.7 | -8 | . | .
COc1ccc(C(=O)/C=C2/c3ccccc3CC(C)(C)N2C)cc1 | -11 | 2.7 | 25 | -34 | .
COc1cc(C)ccc1OCCCOc1c(Cl)cccc1Cl | 6 | 0.6 | 15 | -31 | 2%
CCc1nnc(NC(=O)CSc2ncc(-c3ccccc3)n2CC)s1 | 14 | 1.8 | 2 | -22 | 1%
Cc1c(OCC(=O)C(C)(C)C)ccc2c(-c3ccccc3)cc(=O)oc12 | . | 1.1 | 27 | . | .
O=C(O)CCCCCCCCCCCc1ccccc1 | -2 | 15 | -13 | . | -6% | Arbovirus anti repeat=-3
COc1cc(C(=O)NCCSc2ccc(Cl)cc2)cc(OC)c1OC | . | 0.8 | -6 | . | .
COC(=O)CCCC[C@@H]1SC[C@@H](NC(=O)OC)[C@@H]1NC(=O)OC | 1 | 2.6 | -6 | -21 | -5%
Cc1ccc(-c2cc3nc(-c4ccc(Br)cc4)cc(N)n3n2)cc1 | -22 | 1.5 | 13 | -30 | -2%
COC(=O)c1c(C(=O)OC)c2oc3ccccc3n2c1Cl | 0 | -0.6 | -14 | -9 | -5%
COc1ccc(N(C(=O)CNC(=O)c2ccco2)C(C(=O)NCC2CCCO2)c2ccccc2)cc1 (stereo not drawn) | . | 0.5 | 6 | . | .
COc1ccc(/C=N\NC(=O)c2ccc(=O)[nH]n2)cc1O | 0 | -5.1 | -2 | -18 | 1%
C=CCC(Nc1ccccc1)c1cccc(OC)c1OC (stereo not drawn) | . | 8.6 | -3 | . | -6%
Clc1ccc(-c2nnc(N3CCCC3)nn2)cc1 | -7 | 1.4 | -3 | -40 | 0% | Arbovirus anti repeat=3
CCOc1ccccc1C(=O)N/N=C/c1coc2ccc(C)cc2c1=O | . | -4.2 | -1 | . | .
SMILES | Arbovirus anti | RecA intein inh | Mtb bLac sens | YopH inh | Mtb H37Rv | others
Cc1ccc(Cl)cc1N(C(=O)c1csnn1)C(C(=O)NC1CCCC1)c1ccco1 (stereo not drawn) | . | 0.4 | 0 | . | .
CCOC(=O)N1CCN(S(=O)(=O)c2cccc3nsnc23)CC1 | 6 | . | 2 | -49 | 4%
CCC(=O)N1CCN(c2ccc(NC(=O)c3ccc(N4CCCC4)c([N+](=O)[O-])c3)cc2)CC1 | -8 | -4.3 | -1 | -24 | -1%
Cc1ccc(S(=O)(=O)NC(=O)Nc2cccc(C)n2)cc1 | . | 1.1 | -1 | . | 0%
O=C(NNC(=O)c1nn(-c2ccc(F)cc2)ccc1=O)Nc1cccc(Cl)c1 | . | -1.8 | 3 | . | -3%
CCCCCCOC(=O)/C=C/c1c(C)[nH]c(=O)[nH]c1=O | -8 | 0.2 | 74 | -42 | 4%
Cc1ccc(NS(=O)(=O)c2ccc(C(=O)NCc3ccncc3)cc2)cc1 | . | 2.9 | 3 | . | .
Cc1nnc(Sc2cc(C(=O)NCCCOC(C)C)c3ccccc3n2)s1 | . | 6.6 | 2 | . | 5%
Cc1[nH][nH]c(=O)c1C(c1ccc([N+](=O)[O-])cc1)c1c(C)[nH][nH]c1=O | . | 96* | -6 | . | -6%
COCCn1c(=NC(=O)C2COc3ccccc3O2)sc2cc(S(N)(=O)=O)ccc21 (stereo not drawn) | 0 | -0.6 | 5 | -28 | 7%
Cn1c(C(O)c2ccc3c(c2)OCO3)nc2ccccc21 (stereo not drawn) | 7 | -0.1 | 2 | 11 | 10%
COc1ccc(CCN=C(N)NS(=O)(=O)c2ccccc2)cc1 | 5 | -1.9 | -1 | -41 | -5%
COc1ccc(NC(=O)Nc2cc(C(C)(C)C)on2)cc1OC | . | -1.5 | 33 | . | .
CCCCN1C(=O)C(O)=C(C(C)=O)C1c1ccccc1[N+](=O)[O-] (stereo not drawn) | 7 | -2.4 | 3 | . | 0%
CCCCC(CC)Cn1c2nc3ccccc3nc2c2c(=N)oc(C)nc21 (stereo not drawn) | -45 | -7.7 | . | -30 | .
Cc1nc(S(=O)(=O)c2ccc(Cl)cc2)nc2c1CCC2 | -8 | -2.4 | -10 | -38 | .
Clc1ccccc1C(c1ccccc1)(c1ccccc1)n1ccnc1 | -30 | 17 | 73 | . | 47%&30%
CCOC(=O)NC(=O)C(=CNc1cccc(C)c1)C(=O)NC(=O)OCC | 1 | -0.9 | -10 | -12 | 3%
CC(=O)Oc1ccc2c(c1)OC(c1ccccc1)CC21CC(C)(C)NC(=S)N1 (stereo not drawn) | 8 | 1.1 | -12 | -8 | .
O=C(CCN1C(=O)COc2ccccc21)NCCCN1CCc2ccccc2C1 | 9 | -7.7 | -3 | -3 | 0%
Cc1ccc(C)c(N2CCN(S(=O)(=O)c3ccc4c(c3)CC(=O)N4C)CC2)c1 | . | -0.5 | 7 | . | .
CCOC(=O)c1c(C(F)(F)F)nc2ncccn12 | 0 | . | -3 | -1 | -5%
CCOC(=O)c1c(N)sc(C(C)=O)c1C | -9 | 0.5 | -4 | -21 | -10%
O=C(O)CCc1ccc(-c2ccc(Br)cc2)o1 | 16 | 2.3 | 0 | -53 | 60%
O=C(Nc1ccc(OC(F)(F)F)cc1)c1[nH]ncc1[N+](=O)[O-] | 30* | 0.0 | 21 | . | 69%

By substructure, those above containing bromine.
SMILES | Arbovirus anti | RecA intein inh | Mtb bLac sens | YopH inh | Mtb H37Rv | others
O=C(Nc1ccc(O)cc1C(=O)O)c1cccc(Br)c1 | 3 | -1.3 | -2 | -50 | 0%
Cc1ccc(-c2cc3nc(-c4ccc(Br)cc4)cc(N)n3n2)cc1 | -22 | 1.5 | 13 | -30 | -2%
O=C(O)CCc1ccc(-c2ccc(Br)cc2)o1 | 16 | 2.3 | 0 | -53 | 60%

Further compounds.
SMILES | Arbovirus anti | RecA intein inh | Mtb bLac sens | YopH inh | Mtb H37Rv | others
Cc1cccn2c(=O)c(/C=C(\C#N)S(=O)(=O)c3ccccc3)c(N3CCN(Cc4ccccc4)CC3)nc12 | . | -0.1 | 0 | . | .
Cc1ccc(NC(=O)Cn2ccc([N+](=O)[O-])n2)cc1Cl | 5 | -0.3 | -2 | . | 3%
CN(Cc1ccccc1)C(=O)Nc1ccccc1 | -5 | 0.0 | -2 | 34 | -8%
C=CCn1c(-c2cccnc2)n[nH]c1=S | 0 | -1.3 | -8 | -16 | 5%
CCOc1ccc(-n2ccc(=O)c(C(=O)Nc3ccc(S(=O)(=O)Nc4ncccn4)cc3)n2)cc1 | . | -0.6 | 15 | . | .
CC(=O)Nc1cc(ON=C(C)C)cc([N+](=O)[O-])c1 | 8 | -1.4 | -1 | 5 | 10%
CC1CCC2(CC1)NC(=S)N(c1ccccc1)N2 (stereo not drawn) | -36 | . | 74 | 11 | 71%
CCOc1ccc(NC2CCN(C(C)=O)CC2)cc1 | -6 | -1.9 | -3 | -21 | -5% | Arbovirus anti repeat=0
O=C(c1cc(COc2ccc(F)cc2Cl)on1)N1CCCCC1c1cccnc1 (stereo not drawn) | . | 2.5 | 13 | . | .
CCCCCCCC(=O)Nc1cc(C(=O)NCc2ccc(C)cc2)ccc1N1CCC2(CC1)CC(c1ccccc1)=NO2 | . | 2.1 | -3 | . | .

3 structures already listed, ordered by SMILES length, highest first.
SMILES | Arbovirus anti | RecA intein inh | Mtb bLac sens | YopH inh | Mtb H37Rv | others
CCOc1ccc(-n2ccc(=O)c(C(=O)Nc3ccc(S(=O)(=O)Nc4ncccn4)cc3)n2)cc1 | . | -0.6 | 15 | . | .
CC1CCC2(CC1)NC(=S)N(c1ccccc1)N2 (stereo not drawn) | -36 | . | 74 | 11 | 71%
CCOc1ccc(NC2CCN(C(C)=O)CC2)cc1 | -6 | -1.9 | -3 | -21 | -5% | Arbovirus anti repeat=0

Only part of the results is shown, so the mix of outcomes need not match the whole.
